# Screening data from PubChem.
# SARS PLpro yeast = qHTS of Yeast-based Assay for SARS-CoV PLP; S. cerevisiae expressing SARS-CoV PLpro, growth rescue; control for the full effect not named in the record; Potency, µM (highest dose often 32.9 µM), without a hit: at the top dose activity, positive = growth rescue; hit rate 0.19% among 330,000; further: 0% is about no effect; nearly all actives have a fitted effect of over 55% in size; growth read by luminescence after 48 h
# RE007 growth inh = qHTS Assay for Inhibitors of the HIV-1 protein Vpr. S. pombe RE007 Vpr strain, BacTiter-Glo ATP luminescence, 24 h; control for the full effect not named in the record. Potency, µM (titrated, usually from 92.2 µM), for inactives: at the top dose activity change, negative = less growth. hit rate 0.21% among 360,000. AID 651644, 2012; active = well fitted falling curve with a large enough effect; inconclusive = small, poorly fitted or top-dose-only effect; inactive = no such curve, though single readings can be large or run the other way;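 further: on the % scale 0 is the no-effect control and ±100 the full control effect; nearly all actives have a fitted effect of over 50% in size; the assay follows cell death caused by Vpr and the record does not say whether a fall means rescue or toxicity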
#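 Fission yeast RE007 carrying one integrated HIV-1 vpr copy, seeded at OD 0.01 in PMG+AL medium with 23 nL pinned compound. Grown 24 h at 30 degrees; viability read by BacTiter-Glo luminescence after 5 min.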
# NS1 function inh = qHTS Assay for Inhibitors of Influenza NS1 Protein Function | S. cerevisiae slowed by influenza A NS1, growth recovery by OD600 | Potency, µM (titrated, usually from 46.1 µM), inactives show top-dose activity, positive = more growth | hit rate 0.4% among 270,000; further: actives are rising curves; nearly all actives have a fitted effect of over 50% in size
#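 Compounds were scored for reversing the slow growth caused by influenza A NS1 in S. cerevisiae, measured by optical density at 600 nm. Assay medium contained 2% galactose at pH 6.0; NS1-free yeast of the same strain were the positive control.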
# Cruzain inh noDet = qHTS Assay for Promiscuous and Specific Inhibitors of Cruzain (without detergent); hit rate 2.3% among 200,000; Cruzipain (Trypanosoma cruzi), P25779; purified cruzain, Z-FR-AMC fluorescence, no detergent; AID 1476, 2009; Potency, µM, inactives show max response, negative = inhibition, hits mostly inhibitors; active means well fitted curve in the direction sought with a large enough effect; inconclusive means small, poorly fitted or top-dose-only effect, or another doubt; inactive means no such curve, though single readings can be large; an effect the other way counts as inactive or inconclusive;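 further: plate controls were enzyme without inhibitor for no effect and buffer without enzyme for full effect; nearly all actives have a fitted effect of over 40% in size; top concentration of the series not given in the record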
# Target sequence (P25779 123-467 limits assumed): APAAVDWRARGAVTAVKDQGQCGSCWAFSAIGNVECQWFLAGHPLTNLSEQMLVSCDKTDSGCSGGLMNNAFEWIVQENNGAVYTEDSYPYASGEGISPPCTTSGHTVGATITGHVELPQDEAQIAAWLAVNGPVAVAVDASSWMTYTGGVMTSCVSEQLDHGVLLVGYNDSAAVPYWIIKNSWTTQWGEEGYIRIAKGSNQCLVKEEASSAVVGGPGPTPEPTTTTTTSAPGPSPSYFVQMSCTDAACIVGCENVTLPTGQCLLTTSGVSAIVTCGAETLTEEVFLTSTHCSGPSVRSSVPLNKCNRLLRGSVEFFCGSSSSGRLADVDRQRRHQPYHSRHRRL
#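 Purified cruzain at 1.5 nM, pre-incubated 15 min with compound at room temperature in 100 mM sodium acetate pH 5.5, 5 mM DTT, 0.00005% Triton X-100. Reaction started with 2 uM Z-FR-AMC; AMC fluorescence increase over 60 s gives rate.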
# StopGo reporter = High Throughput Screening for Foot and Mouth Disease Virus Antivirals. hit rate 1.2% among 410,000. human cells with a luciferase reporter of 2A StopGo recoding; control for the full effect not named in the record. Potency, µM (titrated, usually from 57.9 µM), without a hit: at the top dose signal change, negative = less light. AID 1159524, 2015; active = well fitted falling curve with a large enough effect; inconclusive = small, poorly fitted or top-dose-only effect; inactive = no such curve, though single readings can be large or run the other way; tested in HEK293T cells; further: on the % scale 0 is the no-effect control and ±100 the full control effect; nearly all actives have a fitted effect of over 45% in size; luciferase light after 4 h
# MARV entry inh = qHTS for inhibitors of binding or entry into cells for Marburg Virus. hit rate 1.8% among 300,000. Potency, µM (top dose mostly 37.8 µM), without a hit: top-dose activity change, negative = inhibition, usual class: inhibitors. Marburg virus pseudotyped entry inhibition, cell reporter; control for the full effect not named in the record; about a third of the inactives were read at about 46 µM; active = well fitted inhibition curve with a large enough effect; inconclusive = small, poorly fitted or top-dose-only effect, or effect the other way; inactive = flat fitted curve, though single readings scatter; tested in HEK293 cells; about a fifth of its hits are not listed in these tables; further: on the % scale 0 is the no-effect control and ±100 the full control effect; luciferase read-out
# Cruzain inh Det = qHTS Assay for Promiscuous and Specific Inhibitors of Cruzain (with detergent) | Cruzipain (Trypanosoma cruzi), P25779 | purified cruzain, Z-FR-AMC fluorescence, 0.01% Triton | Potency, µM, for the others: max response, negative = inhibition, most hits filed as inhibitors | hit rate 0.43% among 200,000 | AID 1478, 2009; active means well fitted curve in the direction sought with a large enough effect; inconclusive means small, poorly fitted or top-dose-only effect, or another doubt; inactive means no such curve, though single readings can be large; an effect the other way counts as inactive or inconclusive;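 further: plate controls were neutral wells for no effect and buffer without enzyme for full effect; nearly all actives have a fitted effect of over 40% in size; top concentration of the series not given in the record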
#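 Compounds were screened in titration against cruzain (1.5 nM) with 0.01% Triton X-100 to counter colloidal aggregation. Activity was the AMC fluorescence increase over 60 s after adding 2 uM Z-FR-AMC at pH 5.5.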
# Lassa entry inh = qHTS for Inhibitors of binding or entry into cells for Lassa Virus; Potency, µM (titrated, usually from 37.9 µM), without a hit: at the top dose activity change, negative = inhibition, hits mostly inhibitors; Lassa virus pseudotype entry inhibition, cell reporter; control for the full effect not named in the record; hit rate 1.2% among 300,000; active means well fitted inhibition curve with a large enough effect; inconclusive means small, poorly fitted or top-dose-only effect, or effect the other way; inactive means flat fitted curve, though single readings scatter; tested in HEK293 cells; further: on the % scale 0 is the no-effect control and ±100 the full control effect; nearly all actives have a fitted effect of over 50% in size; luciferase read-out
# * marks the source's active call; other numbers are inactive results; ? = inconclusive; · = no result given; & = joins results of further samples; [ ] = dose if it differs, or a comment. Unless noted, the call rests on the fitted dose curve; in most records, active means well fitted rising curve with a large enough effect; inconclusive means small, poorly fitted or top-dose-only effect; inactive means no such curve, though single readings can be large or run the other way. Potency means the concentration at half of the fitted maximal effect. Rows were taken by chance. Share with any hit: about 4.7%.
SMILES,SARS PLpro yeast,RE007 growth inh,NS1 function inh,Cruzain inh noDet,StopGo reporter,MARV entry inh,Cruzain inh Det,Lassa entry inh
COc1ccc(N2CCN(C(=O)Cc3ccc(Cl)cc3)CC2)cc1,-5%,9%,-15%,·,-18%,5%,·,?
O=C(N/N=C/c1ccco1)C(O)c1ccccc1 (stereo not given),-4%,12%,-4%,·,15%,·,·,·
Cc1cc(C)nc(SCc2ccc(Cl)cc2)n1,-11%,1%,-15%,·,-1%,2%,·,6%
NC(=O)NC(=O)C(OC(=O)CCNS(=O)(=O)c1ccccc1)c1ccccc1 (stereo not given),·,4%,·,·,2%,-11%[46.1 µM],·,-4%
CCCOc1ccc(C2C(=O)N(C3CCC(C)CC3)CC(=O)N2CCC2=CCCCC2)cc1OC (stereo not given),·,·,·,-11%,-24%,·,0.0%,-11%[46.1 µM]
CCC(=O)N1c2ccccc2CC1C(=O)NCc1ccccc1C (stereo not given),·,·,·,-6%,-2%,·,0.1%,-5%[46.1 µM]
COC(=O)C1C(=O)c2c(C)noc2CC1(C)C (stereo not given),1%,9%,1%,·,-3%,15%[46.1 µM],·,2%[46.1 µM]
O=C(NC(=S)Nc1ccc(CN2CCOCC2)cc1)c1ccc(-c2ccc(Br)cc2)o1,1%,4%,0%,·,-30%,?,·,?
O=C(c1cccc(Oc2c(Cl)cccc2[N+](=O)[O-])c1)N1CCOCC1,6%,7%,4%,·,2%,-19%,·,-13%
COC(=O)CNC(=O)CSc1nc(N)cc(=O)[nH]1,2%,7%,3%,-2%,14%,5%,3.9%,14%
CC(=O)NCCC(=O)N1CCCC(CNC(=O)c2ccc(-c3ccccc3)cc2)C1 (stereo not given),0%,-19%,-6%,·,25%,15%[46.1 µM],·,8%[46.1 µM]
Cc1ccsc1/C=c1\sc2ncnn2c1=O,-3%,-18%,-36%,14%,-3%,2%,2.4%,23%
O=C(COC(=O)/C=C/c1ccc(Cl)c(Cl)c1)NC1CC1,0%,1%,·,·,-11%,9%,·,-2%
CN(C)C(CNC(=O)c1cccc(C(F)(F)F)c1)c1ccco1 (stereo not given),-1%,8%,-1%,·,4%,-18%[46.1 µM],·,?
CC1CCN(C(=O)COC(=O)c2cc3ccccc3oc2=O)CC1,2%,0%,·,·,-2%,15%[46.1 µM],·,-6%[46.1 µM]
COc1ccc(N2CCN(C(=O)Cc3coc4ccc(C)cc34)CC2)cc1,·,·,·,12%,-19%,20%[46.1 µM],-9.6%,-9%[46.1 µM]
C=CCSc1nccc(-c2nn(-c3ccc(C)cc3)ccc2=O)n1,3%,6%,-17%,?,-10%,?,-4.5%,3.2µM*
CCOC(=O)CCCNC(=O)COC(=O)c1cc(C)cc(C)c1,-4%,-2%,-9%,14%,-16%,-26%,0.9%,-15%
Cc1ccc(S(N)(=O)=O)c(C)c1-n1cnnn1,1%,-1%,·,·,21%,13%[46.1 µM],·,1%
CCCCNC1=C(Br)C(=O)CC(C)(C)C1,2%,12%,9%,0%,-22%,?,4.5%,-1%
CC(C)(C)n1nnnc1C(c1ccncc1)N(Cc1ccccc1)Cc1ccco1 (stereo not given),-7%,-5%,-3%,?,-25%,?,-1.3%,8%
COc1ccccc1-n1cc(CN2CCCC(CO)(Cc3cccc(Cl)c3)C2)cn1 (stereo not given),0%,-1%,0%,·,-22%,·,·,·
CCCC(=O)NCCc1nc2cc([N+](=O)[O-])ccc2n1C,-2%,4%,0%,-20%,-3%,5%,-8.8%,-6%
NC1=NC(=O)C(Cc2cc(Cl)ccc2Cl)S1 (stereo not given),9%,-4%,13%,4%,-2%,8%,5.0%,-1%
COc1ccc(OCC(Cn2cnc3ccccc32)OC(C)=O)cc1 (stereo not given),0%,-10%,-6%,·,3%,29%[46.1 µM],·,-3%
COc1ccc(NC(=O)CSc2nccn2C2CCCC2)cc1OC,·,·,·,-1%,-4%,·,1.3%,5%[46.1 µM]
COc1ccc(NS(=O)(=O)c2ccc(NS(=O)(=O)c3ccc4c(c3)OCCO4)cc2)cc1,·,·,·,2%,26%,-7%[46.1 µM],-9.9%,18%[46.1 µM]
NC(=O)C1CC(=O)N(c2ccc(OCc3c(Cl)cccc3Cl)cc2)C1 (stereo not given),1%,-2%,2%,·,51%[activator],·,·,·
CCOC(=O)c1c(NC(C)=O)no[n+]1[O-],5%,21%,-3%,5%,0%,3%,1.7%,-3%
CCC(=O)N1CCN(c2nc(C)nc3sc(C)c(C)c23)CC1,-8%,-6%,-1%,13%,·,5%,-3.5%,-6%
Cc1cc(C)nc(SCC(=O)Nc2ccnc3ccccc23)n1,0%,-15%,·,·,?,?,·,?
O=C(Cc1ccc(NC2=NC3CS(=O)(=O)CC3S2)cc1)NCc1ccc(Cl)cc1 (stereo not given),-4%,-10%,-11%,·,2%,·,·,·
CC1CN(S(=O)(=O)c2cccc(C(F)(F)F)c2)C(C)N1C(=O)N1CCOCC1 (stereo not given),3%,2%,20%,·,14%,?,·,10%[46.1 µM]
CCS(=O)(=O)N1CCN(c2ccc([N+](=O)[O-])c(NCc3ccccc3)c2)CC1,-3%,3%,-4%,-12%,-23%,8%,-5.0%,-26%
Cc1ccc2sc(N(Cc3cccnc3)C(=O)CCOc3ccccc3)nc2c1C,·,·,·,-23%,-14%,·,-1.9%,8%[46.1 µM]
COc1cccc(NC(=O)CCN2C(=O)c3cccc([N+](=O)[O-])c3C2=O)c1,1%,-1%,9%,·,-5%,?,·,-1%
O=S(=O)(NCc1ccco1)c1ccc(Cl)nc1,5%,-11%,0%,-3%,3%,0%,-2.3%,-16%
N#CCCn1cc(/C=N/N=C2\NC(=O)C(CC(=O)O)S2)c(-c2ccc(F)cc2)n1 (stereo not given),0%,3%,10%,·,-1%,8%[46.1 µM],·,28%
Cc1cc2cc(CCNC(=O)c3cccc([N+](=O)[O-])c3)c(=O)[nH]c2cc1C,2%,-6%,9%,-3%,-24%,?,-5.6%,18%
O=C(Nc1cc(S(=O)(=O)N2CCOCC2)ccc1Cl)c1cc2ccccc2o1,-10%,14%,·,·,?,-19%,·,-16%
O=C(O)c1ccc(CSc2ncnc3c2cnn3Cc2ccccc2)cc1,1%,7%,-5%,·,-7%,4%,·,·
CN(C)C=NC(=O)c1cc(C(=O)c2ccc(Cl)cc2Cl)c[nH]1,1%,-2%,6%,·,-5%,?,·,-7%[46.1 µM]
COc1ccccc1NC(=O)N(CCN1CCOCC1)Cc1cc2cc(C)cc(C)c2[nH]c1=O,0%,3%,0%,·,-17%,-25%[46.1 µM],·,-2%
O=C(c1cnn(-c2ccccc2)c1)c1cc(F)ccc1O,-1%,-8%,-3%,·,61%[activator],3%,·,4%
O=C(CNS(=O)(=O)c1ccc(F)cc1)N1CCCC1,·,-6%,·,·,30%,-3%[46.1 µM],·,7%
NC(=O)COc1c(-c2ccco2)oc2ccccc2c1=O,2%,0%,·,·,-18%,-1%[46.1 µM],·,·
COc1cc(C(=O)Oc2ccccc2)ccc1OCc1c(C)noc1C,-1%,5%,-8%,-26%,6%,-30%,6.1%,-22%
CCn1ncc(N(C)N)c(Cl)c1=O,-1%,-20%,·,·,6%,2%,·,11%[46.1 µM]
COc1ccc(-c2nc(C#N)c(N3CCC(C(N)=O)CC3)o2)cc1OC,1%,-9%[3.69 µM],2%,10%,0%,-7%,-18%,-10%
CN(Cc1ccccc1C#N)S(=O)(=O)c1cccs1,-3%,-8%,-5%,·,-9%,2%[46.1 µM],·,24%
Cc1cc(=O)oc2cc(OCC(=O)NCCCN3CCOCC3)ccc12,·,-5%,4%,4%,-19%,-10%,-3.0%,-2%
Cc1ccccc1C(OCCN(C(C)C)C(C)C)c1ccccc1 (stereo not given),-4%,-23%,-10%,-13%,?,?,-1.4%,4µM*
O=C(CC1SC(=NCC2CCCO2)NC1=O)Nc1cc([N+](=O)[O-])ccc1Cl (stereo not given),-5%,-7%,·,·,-5%,5%,·,?
N[C@@H](Cc1ccc(O)c(I)c1)C(=O)O,4%,·,10%&-9%,-4%&-1%,·,5%&-12%&-12%&30%,3.5%&4.8%,4%&0%
CC(C)[C@H](NC(=O)C1CCN(S(=O)(=O)c2ccc(F)cc2)CC1)C(=O)N1CCCC1,-5%,-3%,11%,·,?,?,·,-1%[46.1 µM]
COc1ccc(S(=O)(=O)N2CCC(C(=O)Nc3cccc(C(C)=O)c3)CC2)cc1,9%,1%,-12%,-1%,-22%,-1%,-3.3%,-1%
CSc1ccc(C(=O)C2CCCN(C(=O)c3ccc4c(c3)no[n+]4[O-])C2)cc1 (stereo not given),-10%,-11%,1%,·,?,·,·,·
COc1ccccc1CNC(=O)[C@@H](NC(=O)C1CCN(C(=O)[C@@H]2CCCN2)CC1)C(C)C,8%,-4%,8%,·,-11%,·,·,·
CCOC(=O)C1CCCN(CC(=O)Nc2cc(C)c3c(=O)oc4ccccc4c3n2)C1 (stereo not given),·,·,·,-9%,-5%,20%[46.1 µM],-1.8%,4%[46.1 µM]
CCN(C(=O)CSc1nnc(C)n1-c1ccc(C)cc1)c1c(N)n(Cc2ccccc2)c(=O)[nH]c1=O,·,-5%,·,·,-7%,-1%,·,?
O=C(NCc1ccco1)c1noc2c1CCCC2,7%,?,-5%,1%,37%[activator],4%,3.3%,?
Cc1c(C)c2cc(Cl)c(OC(C)C(=O)NCCN3CCOCC3)cc2oc1=O (stereo not given),4%,3%,3%,·,0%,·,·,·
